High-throughput results (PubChem)
MgrA-DNA mod: alters Staphylococcus aureus MgrA binding to DNA. 0.13% of 84,000 active. fluorescence polarization. inhibition, %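 (about 10 µg/mL by stock and volumes)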;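 active means above 50% in either of two replicates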;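 further: 0% = protein plus DNA without compound and 100% = DNA alone without protein; higher means less MgrA bound to DNA so lower polarization; one replicate is shown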
Sa helicase inh: blocks Staphylococcus aureus DNA helicase | 0.05% of 120,000 active | inhibition, %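 (tested at about 80 µM)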 | purified S. aureus helicase, fluorescence unwinding assay; about half of the hits fall short of the stated cut;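 active means both duplicates at 50% or more, or one of them with a favoured structure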;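 further: 0% = mean of negative control wells and 100% = mean of positive control wells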
* marks the source's active call; other numbers are inactive results; . = not tested or not shown; & = joins results of further samples. Some of the compounds tested, so the mix of outcomes need not match the whole.

canonical_smiles,MgrA-DNA mod,Sa helicase inh
CCOC(=O)c1c(C)n(C)c2c1cc(OC(=O)c1ccccc1OC)c1ccccc12,-1.5,.
CCc1c(C)nc(SCC(=O)N(CC)CC)c(C#N)c1C,-1.1,7.0
O=C(OCC(=O)N(c1ccccc1)C1CCCCC1)C1COc2ccccc2O1 (configuration not stated),.,-5.0
CC(C)S(=O)(=O)c1nc2ccccc2n1Cc1ccccc1,.,3.0
CC(NC(=O)c1cccn1C)C12CC3CC(CC(C3)C1)C2 (configuration not stated),.,-2.0
Cc1cc(-c2ccc(C)c(S(=O)(=O)N(C)Cc3ccccc3)c2)on1,.,-4.0
CCOC(=O)c1c(C)n(C)c2c1cc(OC(=O)c1ccc(C(C)(C)C)cc1)c1ccccc12,1.3,.
CCSc1nnc(C2CCCN(CC(=O)Nc3nc(C)cs3)C2)n1C (configuration not stated),3.0,4.0
C#CCSc1cccc2cccnc12,8.4,14.0
COc1ccc(C2=NOC(C(=O)N3CCCCC3)C2)cc1 (configuration not stated),.,-9.0
CSC(=NC1CCCCNC1=O)NC#N (configuration not stated),-1.5,.
CCOC(=O)N1CCN(c2ccc3ccccc3n2)CC1,0.1,-7.0
Cc1cc(C(=O)Cn2nnc3ccccc3c2=O)c(C)n1C,.,6.0
O=C(CCN1C(=O)/C(=C/c2ccc3c(c2)OCO3)SC1=S)Nc1ccccc1,.,-7.0
Cc1cc(C(=O)CN(CC2CCCO2)C2CCS(=O)(=O)C2)c(C)n1C (configuration not stated),.,9.0
O=C(Oc1ccc(N(Cc2cccs2)C2=NS(=O)(=O)c3ccccc32)cc1)c1ccccc1,1.4,1.0
CCN(CC)C(=O)O[n+]1ccccc1C(C)C,5.4,4.0
O=C(CN1CCn2nc(-c3ccccc3)cc2C1=O)N1CCCC1,.,-15.0
CCOc1c(C)cc(-c2ncccc2O)cc1C,-3.2,11.0
COc1nc2ccccc2nc1CCC(=O)N1CCCC1,0.0,8.0
Cc1ccc(CN2CCC(CNC(=O)Cn3ncc4c([nH]c5ccccc54)c3=O)C2)cc1 (configuration not stated),.,-14.0
CCOc1ccccc1NC(=S)NCc1cccn1C,-1.6,-1.0
COc1ccc(C(C2=C(O)CC(C)(C)CC2=O)c2c(C)[nH]c3ccccc23)cc1 (configuration not stated),8.2,-19.0
COc1ccc(CN2C(=O)c3ccc(F)cc3C2=O)cc1,1.1,2.0
Fc1ccccc1CSc1nnc2ccc(-c3ccco3)nn12,.,13.0
O=C(CCCC(=O)c1ccc(F)cc1)c1ccc(F)cc1,-1.8,.
CN(C)/C=C(\C#N)S(=O)(=O)/C(C#N)=C/N(C)C,0.1,.
O=c1/c(=C/c2cccc(F)c2)sc2nc(C3COc4ccccc4O3)nn12 (configuration not stated),.,31.0
Cc1ccc(C)c(N2CCN(CCCNS(=O)(=O)c3ccc4oc(=O)c5ncn(C)c5c4c3)CC2)c1,.,-3.0
CC12CCC(C1)C(C)(C)C2NC(=O)c1ccc(Cl)cc1 (configuration not stated),-2.2,.

canonical_smiles,MgrA-DNA mod,Sa helicase inh
Cc1ccc(S(=O)(=O)NCC2CCCO2)cc1 (configuration not stated),-0.3,7.0
Cc1ccc(NC2(C#N)C(=O)Nc3ccccc32)cc1 (configuration not stated),-0.6,-11.0
COc1nsc(SC)c1C#N,1.8,3.0
CNC(=O)CN1C(=O)CSc2nc(C)cc(C)c21,.,-2.0
CSc1nc(-c2ccc(C)cc2)nc(N)c1C#N,.,-17.0
CC(C)C(=O)Nc1nc2ccc(S(C)(=O)=O)cc2s1,-3.4,16.0
Cc1ccc(C(=O)COC(=O)C2c3ccccc3Oc3ccccc32)cc1C,2.5,-4.0
O=C(CSc1nnc2scc(-c3ccc(Cl)cc3)n12)NCc1ccc2c(c1)OCO2,2.1,1.0
N#CCCn1nnc(-c2ccc(Cl)cc2)n1,.,-11.0
CCOC(=O)NS(=O)(=O)c1ccccc1Cl,-4.2,.
Cc1ccc([N+](=O)[O-])cc1S(=O)(=O)Nc1cc(C(F)(F)F)ccc1Oc1ccc(C)c2c1CCC2,-1.4,.
Cc1cc2cc3c(cc2nc1SCCN1CCCC1)OCCO3,0.3,17.0
O=C(O)c1cc2c(F)cccc2s1,.,-7.0
Cc1cc(Cl)ccc1OCCn1cncn1,.,9.0
O=C1CC(c2ccccc2)c2c(O)cc(O)cc2O1 (configuration not stated),0.1,.
Cc1ccnc(NS(=O)(=O)c2ccc(NC(=O)CSc3nc(C)cc(=O)[nH]3)cc2)n1,.,-18.0
O=C(Nc1cccc(F)c1)c1c(Cl)nc2ccccn12,-0.9,-20.0
CC1=C(C(=O)OCC2CCCCC2)C(c2cccc(Oc3ccccc3)c2)NC(=O)N1 (configuration not stated),1.6,.
CCOC(=O)Nc1nc2ccccc2s1,-1.3,-5.0
COc1ccc(-c2noc(COC(=O)CSc3ncnc4sccc34)n2)c(OC)c1,.,12.0
COc1ccc(CNC(=O)/C=C/c2c(C)nn(C3CCS(=O)(=O)C3)c2Cl)cc1OC (configuration not stated),.,-19.0
C=CCNC(=O)c1ccc2c(c1)OCO2,-5.9,7.0
O=C1CN(C(=O)c2ccc(S(=O)(=O)N3CCOCC3)cc2)C(c2ccccc2)c2cc(F)ccc2N1 (configuration not stated),.,-12.0
Fc1ccc(-n2nnnc2-c2cnccc2C(F)(F)F)cc1,.,-19.0
CN(C)c1ccc(NC(=O)CC(C(=O)O)N(C)C)cc1 (configuration not stated),.,-7.0
CCc1sc(C(=O)N2CCN(S(=O)(=O)c3ccccc3)CC2)cc1Br,0.1,2.0
CS/C(NCc1cccnc1)=C(/C#N)C(=O)C1CC1,-0.1,.
Clc1ccc(NCCC2=CCCCC2)nn1,-1.4,-5.0
CC(Sc1ncn[nH]1)C(=O)Nc1ccccc1C#N (configuration not stated),-0.7,5.0
CCOC(=O)Cc1c(C)c2ccc(N(CC)CC)cc2oc1=O,-1.6,10.0

canonical_smiles,MgrA-DNA mod,Sa helicase inh
CCCNC(=O)NCc1cc(C)n(-c2ccc(OC)cc2)c1C,.,5.0
Cn1c(=O)c2c(nc(SCCN3CCOCC3)n2Cc2ccccc2Cl)n(C)c1=O,.,27.0
CC(C)c1ccc(NC(=O)C2C3C=CC4(CN(Cc5cccnc5)C(=O)C24)O3)cc1 (configuration not stated),-1.6,12.0
N#CC(C(=O)CSc1nc2ccccc2n1-c1ccccc1)c1ccccc1 (configuration not stated),.,-4.0
COc1cc(/C=C2/OC(=S)N(C)C2=O)ccc1O,.,-90.0
NC(=O)N/N=C/c1cccc(C(F)(F)F)c1,.,-5.0
Cc1onc(-c2c(F)cccc2Cl)c1NC(=O)OCc1sccc1-n1c(C)ccc1C,0.3,.
CCOC(=O)c1sc(SC)c2c1CCCC2O (configuration not stated),1.4,.
CC(C)(C)OC(=O)CN1C(=O)c2ccccc2S1(=O)=O,0.6,12.0
O=C(CC(C(=O)O)C1CCCO1)Nc1ccccc1 (configuration not stated),-5.4,-1.0
CCOC(=O)c1ccc(NC(=O)c2sc(NC(=O)c3cccs3)c(C(=O)OCC)c2C)cc1,0.1,.
OC(c1ccccc1)c1ccc(Br)cc1 (configuration not stated),0.9,7.0
O=C1NCC2=C1C(c1ccc(Br)cc1)Nc1ccccc1N2 (configuration not stated),2.8,0.0
CCOC(=O)N1CCN(S(=O)(=O)N2CCCC(C(=O)NCc3ccc(F)cc3)C2)CC1 (configuration not stated),-2.0,1.0
CCC(C)(CN(C)C)OC(=O)c1ccccc1 (configuration not stated),-1.7,.
Cc1cc(C(=O)Nc2ccc(N3CCOCC3)cc2)no1,.,12.0
Cc1ccc(Oc2ncccc2N)c2c1CCC2,0.5,.
CC(=O)Nc1ccc(Oc2ccc(-c3noc(C)n3)cc2)cc1,0.6,-4.0
COC(=O)c1cccc2[nH]ncc12,1.2,8.0
Nc1sc2c(c1-c1nc3ccccc3s1)CCC2,4.8,4.0
COC(=O)CCSc1nc2sc3c(c2c(=O)n1-c1ccc(OC)cc1)CCC3,-0.2,.
COc1ccc(NC(=O)CSC2CCCCC2)cc1,-0.4,5.0
O=C1c2ccccc2S(=O)(=O)c2cc(C(=O)N(Cc3ccco3)C3CCS(=O)(=O)C3)ccc21 (configuration not stated),.,-9.0
CC1=CC(C)C2(CO)COC(=C(C)C)C1C2C (configuration not stated),0.2,8.0
O=C(NC1CCN(Cc2ccccc2)CC1)c1cccs1,.,9.0
O=C(CSc1n[nH]c(-c2ccncc2)n1)N1c2ccccc2OCC1c1ccccc1 (configuration not stated),.,-1.0
CCCCC(=O)Nc1nnc(-c2ccc(OC)cc2OC)s1,.,20.0
CCOc1ccc(N2C(=O)c3ccccc3C2Nc2ccccc2OC)cc1 (configuration not stated),1.8,9.0
COc1ccc(CNC(=O)Cc2cccs2)cc1OC,-0.5,16.0
Cc1cc(C)n2c(Br)c(CSc3nc4ccccc4o3)nc2n1,0.3,7.0

canonical_smiles,MgrA-DNA mod,Sa helicase inh
O=C(c1cccc(S(=O)(=O)NC2CC2)c1)N1CCN(c2ncccn2)CC1,.,-6.0
Oc1cccc(C(=S)N2CCCCC2)c1,2.1,5.0
CCOC(=O)Cc1csc(NS(=O)(=O)c2ccc(Cl)cc2)n1,1.0,.
CN(C)CC(C)(C)CNc1ncnc2sccc12,.,-27.0
CCOC(=O)c1csc(-c2cn(C(C)C)c(=O)n(Cc3ccccc3)c2=O)n1,-0.8,.
CC1(C)CC(=O)C(c2nc3ccc(C(=O)c4ccccc4)cc3[nH]2)=C(O)C1,2.5,9.0
C=CCNC(=O)Cc1ccc(-c2ccccc2)cc1,.,0.0
CCn1c(C)nc2cc(S(=O)(=O)C(F)(F)F)ccc21,2.8,7.0
Cc1nc(N2CCCC2)nc2oc(-c3ccccc3)nc12,.,-5.0
CCCN(CCC)c1ncnc2c1cnn2-c1ccc(OC)cc1,-3.5,4.0
CC(=O)Oc1ccc(Nc2ccccc2)cc1,-2.5,3.0
Cc1ccc(S(=O)(=O)N2CCCCC2)cc1C(=O)N1CCCC1,-0.1,7.0
CCN(CC)S(=O)(=O)c1ccc(C(=O)N2CCNC(=O)C2)cc1,.,-3.0
COC(=O)CCS(=O)(=O)c1ccc(Oc2ccc(S(=O)(=O)CCC(=O)OC)cc2)cc1,2.1,1.0
COc1ccc(-c2ccc3c(n2)sc2c(O)cc(=O)[nH]c23)cc1,.,-9.0
COc1cc(CNC(=O)CCCC/C=C/C(C)C)ccc1O,-1.2&2.4&2.1,.
CC(NC(=O)Nc1ccccc1O)(C(F)(F)F)C(F)(F)F,-1.5,15.0
O=C(/C=C/c1c(Cl)nc2sccn12)Nc1ccc2c(c1)OCCO2,.,-10.0
COc1c(C(=O)O)sc(C(=O)O)c1OC,-2.6,.
O=S1(=O)CCC(S(=O)(=O)Nc2ccccc2)C1 (configuration not stated),.,11.0
COC(=O)C1=C(C)N(c2ccc(Br)cc2)C(=O)/C1=C\c1ccco1,2.5,-9.0
Cc1cc2nc(C(F)(F)F)cc(-c3cccs3)n2n1,-0.7,-41.0
Cc1ccc(CN2C(=O)/C(=c3\sc4nc(-c5cccs5)nn4c3=O)c3ccccc32)cc1,.,13.0
CC(NS(=O)(=O)c1ccccc1)C(c1cccs1)N1CCN(C)CC1 (configuration not stated),.,-21.0
Cc1cccc(NC(=S)NC23CN4CN(CN(C4)C2)C3)c1C,.,12.0
CC(C)CS(=O)(=O)C1=NN2C(=N)/C(=C\c3ccc(N(C)C)c(Br)c3)C(=O)N=C2S1,3.8,3.0
COc1ccc(CNC(=O)c2cc3sccc3n2CC(=O)c2ccccc2)cc1,-1.0,4.0
CC1=C(C(=O)NCCCN2CCN(c3cc(Cl)ccc3C)CC2)C2(CCCCC2)OC1=O,3.2,18.0
CCOc1ccccc1NN,-2.3,3.0
CSc1ccccc1NC(=O)c1cc(Cl)sc1Cl,-0.2,.

By substructure: the compounds so far with a COOH group.
canonical_smiles,MgrA-DNA mod,Sa helicase inh
O=C(O)c1cc2c(F)cccc2s1,.,-7.0
CN(C)c1ccc(NC(=O)CC(C(=O)O)N(C)C)cc1 (configuration not stated),.,-7.0
O=C(CC(C(=O)O)C1CCCO1)Nc1ccccc1 (configuration not stated),-5.4,-1.0
COc1c(C(=O)O)sc(C(=O)O)c1OC,-2.6,.

Further structures:
canonical_smiles,MgrA-DNA mod,Sa helicase inh
CCOC(=O)COc1cc(OCC(=O)OCC)c2c3c(c(=O)oc2c1)CCC3,.,10.0
O=C(CN1CCOCC1)NCc1ccccc1,0.5,17.0
CNC(=S)N=Nc1c(O)[nH]c2ccc(C(C)C)cc12,.,10.0
Cc1ccc(Oc2ccc(C(=O)O)cc2)cc1C,-2.4,6.0
C/C(CC1(O)C(=O)N(C)c2ccccc21)=N\O (configuration not stated),0.8,7.0
Cc1noc(C)c1S(=O)(=O)N1CCC(C)CC1,-0.3,10.0
CC(C)(C)c1cccc(OCCON2C(=O)CCC2=O)c1,0.9,3.0
Cc1cc(C)c2c(c1)/C(=N/NC(=O)CCN1CCOCC1)CCC2,.,-12.0
CCOC(=O)N1CCC(NC(=O)CCNC(=O)Cn2ccc3ccccc3c2=O)CC1,.,16.0
CCOc1ccc(N/C(N)=N/c2nc(C(F)(F)F)cc(C(F)(F)F)n2)cc1,2.2,6.0
O=C(Nc1ccc(Br)cc1F)C1CCN(c2nnc(-n3cccc3)s2)CC1,.,11.0
COC(=O)c1ccccc1NC(=O)CN(C)Cc1ccccc1,.,-1.0
